Rce1 inhib = blocks yeast Ras-converting enzyme. Q03530. yeast membranes, quenched prenylated peptide cleavage fluorescence. calls only. hit rate 0.27% among 290,000;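 active means fall in fluorescence gain of 50% or more versus controls, with final raw signal at or below 3038400; inconclusive means same 50% fall but final raw signal above 3038400; inactive means fall in fluorescence gain under 50%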;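 further: plate controls were neutral control wells for no effect and wells lacking membranes for full effect; tested at 10 µM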
Target sequence (Q03530 whole entry, looked up): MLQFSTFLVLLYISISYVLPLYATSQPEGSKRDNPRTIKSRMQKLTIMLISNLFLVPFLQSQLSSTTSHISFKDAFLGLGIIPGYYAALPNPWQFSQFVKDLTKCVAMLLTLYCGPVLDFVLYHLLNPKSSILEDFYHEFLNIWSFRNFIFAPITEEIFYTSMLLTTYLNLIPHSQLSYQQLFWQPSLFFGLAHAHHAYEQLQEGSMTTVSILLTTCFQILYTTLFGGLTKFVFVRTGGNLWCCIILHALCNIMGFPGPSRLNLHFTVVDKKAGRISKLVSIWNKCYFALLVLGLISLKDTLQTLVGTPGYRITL
PABP polyA inh = blocks human PABP binding to poly(A) RNA; hit rate 1% among 290,000; inhibition, % at 35 µM; fluorescence polarization; P11940;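 active means 50% or more with normal probe brightness, or confirmed in later tests; inconclusive means above 50% with abnormal brightness, or retests that disagree; inactive means below 50% or failed in later tests; about a fifth of its hits are not listed in these tables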;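 further: calls also rest on retests at 20 µM and on dose response follow-up; controls were probe without protein and protein plus probe with vehicle; some compounds called inactive have numbers as strong as hits; many hits fall short of the cut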
MT1-MMP act inh = blocks activation of human MT1-MMP | P50281 | hit rate 0.061% among 360,000 | HT1080 RFP-PRO-GFP cells, GFP/RFP ratio fluorescence, overnight; percent of plate control window, DMSO zero | GFP/RFP ratio change, % at 20 µM | AID 651647;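 active means GFP/RFP ratio change of at least 30% with cell ATP level not reduced by more than half and red fluorescence within 50% of control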; further: strong numbers were not always called active
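Test system: HT1080 cells expressing an RFP-PRO-GFP fluorescent reporter construct / Compound dosing: single-point 20 µM compound, 1% DMSO / Schedule: cells overnight before dosing, compound overnight, 37 °C, 5% CO2 / Evaluation: GFP/RFP fluorescence ratio / Control set: DMSO and RFP-L50D-GFP cell wells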
UUG fidelity = yeast start codon fidelity modulation; S. cerevisiae UUG-firefly luciferase reporter, luminescence/redox ratio; activity score, % at 18.7 µM; hit rate 0.13% among 350,000;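 active means replicate mean at a twofold rise or more, about +100% in these data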;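 further: firefly luciferase made from a UUG start codon reports start codon fidelity; reporter light over untreated wells divided by growth signal over untreated wells; some hits fall short of that in this replicate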
Env fusion inh = HIV envelope-mediated fusion inhibition | AID 651610 | HeLa-JRFL Env/CEM21 cell fusion, luciferase | inhibition, % at 12.3 µM | hit rate 1.1% among 360,000;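 active means mean replicate inhibition score of at least 50 and every replicate individually at or above 50; inconclusive means only one of the two criteria met; inactive means mean below 50 and not all replicates reaching 50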;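 further: 0% = plate neutral controls and 100% = maraviroc near 300 nM; one replicate is shown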
eIF4H inh = inhibitors of RNA binding by human eIF4H; inhibition, % at 35 µM; AID 2012; hit rate 0.94% among 290,000; eIF4H fluorescence polarization binding assay;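 active means 50% or more with normal probe brightness, or confirmed in later tests; inconclusive means above 50% with abnormal brightness, or retests that disagree; inactive means below 50% or failed in later tests; about a fifth of its hits are not listed in these tables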;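 further: calls also rest on retests at 20 µM and on dose response follow-up; 0% = protein and probe with vehicle and 100% = probe without protein; strong numbers were not always called active; many hits fall short of the cut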
CSC inhib = cancer stem cell inhibition. cancer stem cell-like cells viability, luminescence. inhibition, % at 7.5 µM. hit rate 1.1% among 300,000;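 active means mean at 75% or more and at least half the replicates too; inconclusive means mean and replicates disagree; tested in HMLE shEcad cells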;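 further: 0% = median of negative and 100% = median of positive control wells; the first replicate is given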
eIF4H inh retest = recorded beside eIF4H inh, whose call it bears; inhibition, %; compound at 20 µM; confirmation average;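 mean of two retest wells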
PABP polyA inh retest = further read-out of PABP polyA inh, marked with its call; inhibition, %; compound at 20 µM; confirmation repeats;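 mean of two retest wells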
MT1-MMP act inh RFP = recorded beside MT1-MMP act inh, whose call it bears; RFP signal change, %; measured here: RFP expression control read;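 0 = vehicle wells; hits needed this value within 50% of zero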
The depositor's hits bear a star; i = inactive; ? = inconclusive; . = no result given; & = joins results of further samples.

SMILES	Rce1 inhib	PABP polyA inh	MT1-MMP act inh	MT1-MMP act inh RFP	UUG fidelity	Env fusion inh	eIF4H inh	CSC inhib	others
Cc1cc(-n2c(SCC(=O)Nc3ccc(F)c(F)c3)nc3n[nH]c(C)c3c2=N)ccc1Cl	i	13	5	-3	-19	35	10	68
Cc1nc(Cl)c2oc3ccccc3c2n1	i	1	-2	-5	-10	?	0	-3
Cc1ccccc1-n1c(C)nnc1SCC(=O)NCC1CCCO1 (stereo not drawn)	i	6	6	5	.	.	0	10
O=C(CN1C(=O)NC2(CCCC2)C1=O)Nc1ccccc1F	i	-15	9	-1	-7	-14	-2	6
Cc1nn2c(N3CCCC3)cc(C(C)C)nc2c1-c1ccccc1	i	-5	-8	-8	5	-6	12	49
COc1ccc(CNC(=O)c2cc(C)nn2-c2ccccc2)cc1	i	-1	-1	0	.	-17	-1	-7
Cc1cc2ccccc2n1CCNC(=O)c1ccc(Br)o1	i	52*	37*	41*	6	.	59*	5
CCOc1cccc(NC(=O)CC#N)c1	i	9	2	4	-4	i	6	-6
COc1cccc(CNc2nc3cc(-c4ccc(OC)cc4C)sc3c(=O)n2C)c1	.	.	-5	-19	-12	?	.	.
C=CCC(CC=C)(NC(=O)c1ccccc1C)c1ccccc1	i	1	-9	0	-7	-64	4	11
COc1ccc(C2=NCCc3cc(OC)c(OC)cc32)cc1	i	61	1	-2	.	-4	0	.	eIF4H inh retest=-5;PABP polyA inh retest=4
CC(C)(C)c1csc(NC(=O)CSC2=NCCS2)n1	i	2	0	1	-17	-1	5	7
CCOC(=O)C1=CCN(S(=O)(=O)c2ccc(F)cc2)C1c1cccc(C)c1 (stereo not drawn)	.	.	6	4	-4	-10	.	.
N/C(=N\OC(=O)COc1ccc2ccccc2c1Br)c1cccnc1	i	43	.	.	.	-11	-12	39
Cc1cccc(C(=O)Nc2ccccc2SCC2CSc3nc4ccccc4c(=O)n32)c1 (stereo not drawn)	i	19	-3	4	-18	.	1	14
O=C(c1ccc2oc(CCCc3ccccc3)nc2c1)N1CCCCC1CO (stereo not drawn)	i	-8	2	-1	1	-28	-3	-2
CCS(=O)(=O)N1CCN(c2ccc([N+](=O)[O-])c(N3CCOCC3)c2)CC1	i	6	7	0	-3	.	-11	-9
O=C(Cn1nnc(-c2ccccc2)n1)NCc1ccc2c(c1)OCO2	i	-10	3	0	-11	.	1	6
CNc1cccc(-c2cc(OC)ccc2OC)n1	.	.	5	2	-12	-17	.	.
O=C(NC1CC2CCCC(C1)N2C(=S)Nc1ccccc1)C1CC1 (stereo not drawn)	i	3	2	1	-5	7	-3	16
COC(=O)C1=C(C)NC(=O)C1(Nc1nccs1)C(F)(F)F (stereo not drawn)	i	1	0	6	15	.	13	-8
Cc1c(Cl)c([N+](=O)[O-])nn1CCCC(=O)NCCc1ccccc1	i	-2	1	1	-15	-6	-9	-15
CC(=O)Nc1ccc(S(=O)(=O)N2CCN(CC(=O)NC3CCCC3)CC2)cc1	i	14	-7	1	-13	-10	-7	-16
CCOC(=O)N1CCN(C(=O)c2ccc(CS(=O)c3cccc(C)c3)o2)CC1 (stereo not drawn)	.	.	2	3	-4	5	.	.
CS(=O)(=O)Nc1ccc2c(c1)nc1n2CCOC1	i	-5	-5	-1	-4	-29	11	4
Cc1ncn(-c2ccc(C(=O)Oc3ccccc3)cn2)n1	i	-8	2	5	.	4	9	0
CCOc1ccccc1OCCCOc1ccc([N+](=O)[O-])cc1Cl	i	1	10	-5	0	.	14	19
O=C(COc1ccc(Br)cc1)N1CCCCCC1	i	7	3	5	-5	.	-7	-12
O=C(Nc1ccc(Cl)cc1)Nc1ccc(N2CCOCC2)cc1	i	5	-5	-11	-10	13	-1	14
CC1CCc2sc3c(c2C1)c(=O)n(CC(=O)O)c(=O)n3Cc1ccc(Cl)cc1 (stereo not drawn)	i	15	0	6	-2	-1	8	-8
Cc1cccc(N2CCN(C(=O)c3cc(S(=O)(=O)N4CCOCC4)cn3C)CC2C)c1 (stereo not drawn)	i	24	1	2	0	0	-12	-2
COc1ccc(NC(=O)c2cc(SC)ccc2Cl)cc1	i	-4	-1	-2	.	-17	8	7
COCCCNC(=O)c1ccc2sc(C3=C[C@@H](O)[C@@H](O)[C@@H](CO)O3)nc2c1	.	.	0	6	-12	9	.	.
COc1cc(C(=O)NNC2=CC(=O)CC(C)(C)C2)cc(OC)c1OC	i	84	-4	-1	.	-17	-3	-12	eIF4H inh retest=18;PABP polyA inh retest=44
COc1ccc(S(=O)(=O)Oc2ccc3c(c2)O/C(=C\c2cccnc2)C3=O)cc1	i	-2	-4	-13	-14	.	6	.
CC1(C)CNC(=O)C=C(c2ccccc2)C1	i	-9	7	-1	-6	-74	-8	-21
O=C(NC1CCCCC1)c1ccc(CNc2nc(=S)[nH]c3ccccc23)cc1	.	16	6	-7	-19	3	-3	-7
CCOC(=O)N1CCC(NC(=O)CN2C(=O)CCSc3ccccc32)CC1	i	3	2	7	-16	-25	-4	4
Oc1c(Cl)cc(CN2CCCCC2)c2cccnc12	i	-2	-10	-21	-50	.	47	87*
N#CCN1CCN(CC(=O)Nc2ccc(OCc3ccccc3)cc2)CC1	i	10	-6	-2	11	-9	-9	28
O=P(O)(O)c1ccccc1OCCCCCOc1ccccc1P(=O)(O)O	.	3	7	7	-15	-5	15	-6
CCOC(=O)C1C(C#N)=C(N)OC(C)=C1c1ccncc1 (stereo not drawn)	i	-4	-2	-1	-12	.	2	13
CCOC(=O)C1CCCN(S(=O)(=O)Cc2ccccc2Cl)C1 (stereo not drawn)	i	4	-5	-6	-5	4	5	12
COc1ccc(N2CCCn3c2nc2c3c(=O)n(Cc3ccccc3)c(=O)n2C)c(OC)c1	i	4	5	1	.	12	-7	-13
COc1cc(C2CC(=O)NC3=C2C(=O)CC(C)(C)C3)ccc1O (stereo not drawn)	i	-9	2	5	-20&1	.	-1	.
NNC(=O)c1ccc(N2CCc3ccccc32)c([N+](=O)[O-])c1	i	5	12	-4	-15	9	4	12
CN(C(=O)COC(=O)CNC(=O)CNC(=O)c1ccc(Cl)cc1Cl)c1ccccc1	i	10	0	1	.	2	-12	-19
Brc1ccc(C2=Nn3c(nnc3-c3cccnc3)SC2)s1	i	12	1	0	10	.	1	-1
Cc1onc(-c2c(Cl)cccc2Cl)c1C(=O)Nc1ccc2c(c1)OCCO2	.	0	-4	-1	-17	.	2	-10
CCCCCC(C)n1[nH]c(=O)c2c(C)cc(C)nc21 (stereo not drawn)	i	-3	3	1	-17	-12	4	-16
C=CCn1c(SC(F)F)nc2scc(-c3ccco3)c2c1=O	i	10	9	-15	-24	-22	-11	40
CCC(C(=O)NC(C)(C)C)N(C(=O)Cn1nnc(-c2ccccc2F)n1)c1cnc2ccccc2c1 (stereo not drawn)	i	-1	0	-1	.	3	-4	-9
CC(C)CC(=O)NC(NC(=S)Nc1sc2c(c1C#N)CCCC2)C(Cl)(Cl)Cl (stereo not drawn)	i	-7	4	2	.	-40	1	80*
O=C(Nc1ccc(O)c2c(=O)cc(-c3ccccc3Cl)oc12)c1ccc(Cl)cc1Cl	i	2	-2	-4	0	-11	-8	-13
Cc1occc1C(=O)NNC(=O)c1ccc(F)cc1	i	3	-2	4	-17	-32	-4	-17
O=C(NC1CCCCC1)C(c1ccc(O)cc1)N(C(=O)c1cnccn1)c1cccc(F)c1 (stereo not drawn)	i	19	-1	1	1	-165	-12	.
COCCCn1c(=N)c(C(=O)NCC2CCCO2)cc2c(=O)n3cccc(C)c3nc21 (stereo not drawn)	i	-6	3	-1	16	3	9	2
NC(=O)Cn1ccc(O)c(Cc2ccc(Cl)cc2Cl)c1=O	i	0	2	-3	-8	7	-7	7
O=C(CCCn1c(=O)c2sccc2n(Cc2ccc(F)cc2)c1=O)NCc1ccco1	i	0	2	0	-11	.	-2	32
CCCCN(C(=S)SC)C1CCS(=O)(=O)C1 (stereo not drawn)	i	-3	-2	-2	-18	14	0	6

Of the compounds above, these have a tert-butyl group.
SMILES	Rce1 inhib	PABP polyA inh	MT1-MMP act inh	MT1-MMP act inh RFP	UUG fidelity	Env fusion inh	eIF4H inh	CSC inhib	others
CC(C)(C)c1csc(NC(=O)CSC2=NCCS2)n1	i	2	0	1	-17	-1	5	7
CCC(C(=O)NC(C)(C)C)N(C(=O)Cn1nnc(-c2ccccc2F)n1)c1cnc2ccccc2c1 (stereo not drawn)	i	-1	0	-1	.	3	-4	-9

Back to the main list, repeating the 4 entries before the break.
SMILES	Rce1 inhib	PABP polyA inh	MT1-MMP act inh	MT1-MMP act inh RFP	UUG fidelity	Env fusion inh	eIF4H inh	CSC inhib	others
COCCCn1c(=N)c(C(=O)NCC2CCCO2)cc2c(=O)n3cccc(C)c3nc21 (stereo not drawn)	i	-6	3	-1	16	3	9	2
NC(=O)Cn1ccc(O)c(Cc2ccc(Cl)cc2Cl)c1=O	i	0	2	-3	-8	7	-7	7
O=C(CCCn1c(=O)c2sccc2n(Cc2ccc(F)cc2)c1=O)NCc1ccco1	i	0	2	0	-11	.	-2	32
CCCCN(C(=S)SC)C1CCS(=O)(=O)C1 (stereo not drawn)	i	-3	-2	-2	-18	14	0	6
Cc1ccc(S(=O)(=O)N(C)C)cc1NC(=O)COC(=O)CSc1ccccc1	i	.	4	9	-4	1	.	-7
COc1ccc(C2CC(c3ccccc3)=NN2C(=S)Nc2ccccc2)cc1 (stereo not drawn)	i	5	-1	-5	-16	-11	-5	2
CCN(C[C@H]1N[C@@](C)(C(=O)OC)[C@H]2C(=O)N(C)C(=O)[C@@H]12)C(=O)C1CCCCC1	.	.	0	5	15	-6	.	.
O=C(NCc1ccc2c(c1)OCO2)c1ccc(CN2CCc3ccccc3C2)cc1	i	-8	3	-4	3	.	4	17
O=C(NCc1ccccc1)C(c1ccncc1)N(C(=O)c1ccccn1)c1ccccc1 (stereo not drawn)	i	-4	-4	5	4	-7	3	.
CC(=Nc1ccccc1)C1=C(O)C(CC(C)C)NC1=O (stereo not drawn)	.	.	3	1	-8	-6	.	.
O=C(C1CC12CCCC2)N1CCC(CO)(Cc2ccccc2Cl)CC1 (stereo not drawn)	i	-5	-7	-10	.	9	9	-9
COc1cccc(C(C(=O)NC2CCCCC2)N(C(=O)c2ccco2)c2ccccc2OC)c1 (stereo not drawn)	i	2	2	-1	14	9	11	4
CCn1cc(/C=C(\NC(=O)c2ccc(OC)c(OC)c2)C(=O)N2CCOCC2)c2ccccc21	i	-7	0	1	29	-8	-9	0
COc1ccc(C(=O)NCCSCc2ccccc2C)cc1	i	5	3	2	-11	-90	-7	-3
CCn1c(COc2cc(C)cc(C)c2)nnc1SCC(=O)N1CCN(c2ccccc2)CC1	i	3	-8	-12	.	.	0	-15
Cn1c(CCN2CCN(c3ccccn3)CC2)nc2cc(NS(=O)(=O)c3ccc(Cl)cc3)ccc21	i	0	2	-8	5	-5	-9	-1
CC1=C(C)C(OCCBr)N(c2cc(O)c(Cl)cc2F)C1=O (stereo not drawn)	i	4	-2	3	.	-24	-4	-6
C=CCN(CC=C)C(=O)C[n+]1ccc(C(N)=O)cc1	i	10	1	3	.	-10	-3	-8
O=C(NCC(c1ccco1)N1CCN(c2ccccc2)CC1)c1cccs1 (stereo not drawn)	i	.	27	-5	-4	.	.	-2
O=S(=O)(c1cccs1)N1CCN(c2ccccc2)CC1	i	1	1	3	.	9	-5	4
CC(c1ccccc1)n1c(CO)nc2ccccc21 (stereo not drawn)	i	2	1	-3	-24	10	-14	-2

Screening data deposited in PubChem BioAssay by several laboratories.
